Assay outcomes from PubChem BioAssay.
Sa helicase inh: S. aureus DNA helicase inhibition. purified S. aureus helicase, fluorescence unwinding assay; about half of the hits fall short of the stated cut. inhibition, %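 (tested at about 80 µM)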. actives 0.05% (n = 120,000). AID 485395;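 active means both duplicates at 50% or more, or one of them with a favoured structure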;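 further: 0% = mean of negative control wells and 100% = mean of positive control wells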
MgrA-DNA mod: modulators of Staphylococcus aureus MgrA DNA binding | inhibition, %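 (about 10 µg/mL by stock and volumes)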 | actives 0.13% (n = 84,000) | fluorescence polarization;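 active means above 50% in either of two replicates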;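 further: 0% = protein plus DNA without compound and 100% = DNA alone without protein; higher means less MgrA bound to DNA so lower polarization; one replicate is shown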
An asterisk follows results filed as active; / = not tested or not shown.

Start of the data: the first four records (preview)
SMILES	Sa helicase inh	MgrA-DNA mod
c1ccc(-n2c3c(c4ccccc42)CCCC3)cc1	4	-1.3
CCc1cc2c(=O)c(-c3nc(C)cs3)c(N)oc2c(CN2CCCCC2)c1O	-11	/
CC(=O)N1CCC(=O)Nc2ccccc21	/	-2.4
CCOC(=O)N1CCC(NC(=O)c2nccnc2C(=O)Nc2ccc(C)cc2)CC1	19	/

The whole of this part, previewed entries included:
SMILES	Sa helicase inh	MgrA-DNA mod
c1ccc(-n2c3c(c4ccccc42)CCCC3)cc1	4	-1.3
CCc1cc2c(=O)c(-c3nc(C)cs3)c(N)oc2c(CN2CCCCC2)c1O	-11	/
CC(=O)N1CCC(=O)Nc2ccccc21	/	-2.4
CCOC(=O)N1CCC(NC(=O)c2nccnc2C(=O)Nc2ccc(C)cc2)CC1	19	/
CC(=O)Nc1ccc2oc(-c3ccccc3)nc2c1	-11	-2.2
Nc1ccc2c(c1)C(=O)N(CCCCN1C(=O)c3ccc(N)cc3C1=O)C2=O	6	-0.7
CCn1c(SCC(=O)N=Nc2c(O)[nH]c3c(C)cc(C)cc23)nnc1-c1ccc(C)cc1	9	/
CC(C)CCN1COc2ccc3c4c(oc3c2C1)C(=O)c1ccccc1C4=O	10	/
CCc1nc(C)cn1S(=O)(=O)c1cc(Br)c(C)cc1OC	-8	3.0
FC(F)(F)c1cc(-c2nn[nH]n2)cc(C(F)(F)F)c1	/	-2.2
O=c1c(Cl)c(N2CCCC2c2ccc3c(c2)OCCO3)cnn1-c1nc2ccccc2[nH]1 (stereo unspecified)	0	/
CC(=O)Nc1ccc(S(=O)(=O)NNc2ncnc3sccc23)cc1	22	/
CCOC(=O)COc1nc(C)cc(C(F)(F)F)c1C#N	/	0.1
O=C(OCC(=O)N1CCCCC1)c1ccc(OC(F)(F)F)cc1	-12	-0.8
CC(=O)Nc1ccccc1OCC(=O)N(C)Cc1ccco1	10	/
C=CCOc1ccc(C2c3c(oc4ccc(F)cc4c3=O)C(=O)N2CCOC)cc1 (stereo unspecified)	4	/
Cc1nn(C(=O)c2ccc(C(C)(C)C)cc2)c(N)c1-c1ccccc1	3	-1.2
O=C1Nc2ccccc2/C1=C/c1cccc(Cl)c1	-7	1.0
O=C(NC1CCCCC1)C(Cc1ccccc1)n1cccc1 (stereo unspecified)	6	/
O=c1cc(C(F)(F)F)[nH]c2ccc(C(F)(F)F)cc12	/	2.7
CC(=NCC(c1ccco1)N1CCCCC1)C1=C(O)CC2(CCCCC2)CC1=O (stereo unspecified)	-6	/
COc1ccc(OCCOc2ccc(C)cc2OC)cc1	5	1.0
O=C(CSc1ncccc1C(=O)Nc1ccc2c(c1)OCCO2)Nc1ccc2c(c1)OCO2	12	/
O=C(COc1ccc(-c2ccccc2)cc1)Nc1ncccn1	16	0.4
COc1cccc(C2CC(c3cccs3)=NN2C(=O)CSC2CCCCC2)c1OC (stereo unspecified)	10	2.5
CCOC(=O)/C(=C\c1ccc(OCC(=O)O)cc1)C1=Nn2c(nnc2C2CCCCC2)SC1	11	/
CC(=O)Nc1c(O)nc(SCC(=O)NC(C)c2ccccc2)n(-c2ccccc2)c1=O (stereo unspecified)	11	/
COC(=O)C1=CNC=C(C(=O)OC)C1c1ccc(C(=O)OC)cc1	11	/
O=C(COc1ccccc1)OCC(=O)c1cccc(C(F)(F)F)c1	-2	-0.7
O=C(N/N=C/c1ccccn1)c1ccccc1NS(=O)(=O)c1cccs1	-8	/
Cc1ccc(-n2nc(C)c3cc(C#N)c4nc5ccccc5n4c32)cc1	-31	/
CC(C)(C)c1ccc(C(=O)N(Cc2ccco2)C2CCS(=O)(=O)C2)cc1 (stereo unspecified)	-19	/
O=c1c(O)c(-c2ccccc2O)[nH]c2ccccc12	-2	/
Cc1cc(C=C2C(=O)CCCC2=O)c(C)n1-c1ccccc1	-11	7.7
Cc1nc2ccccc2c2nc(NC(=O)c3ccc4nsnc4c3)nn12	-13	/
Cc1ccc(C(=O)CSCC(=O)Nc2ccccc2)s1	-15	-0.9
Cc1cc(NS(=O)(=O)c2ccc(NC(=O)c3ccncc3)cc2)nc(C)n1	6	1.2
COc1c(C)cc(S(=O)(=O)N2CCN(c3ccc(F)cc3)CC2)c(C)c1C	11	-1.1
CCOC(=O)c1nnn2c1nc(Sc1nc3ccccc3[nH]1)c1ccccc12	9	/
O=C(Nc1cc(Cl)cc(Cl)c1)C(Sc1cccc[n+]1[O-])c1ccccc1 (stereo unspecified)	4	-0.3
CCN1CCCC1CNC(=O)c1noc2c1COc1ccc(C)cc1-2 (stereo unspecified)	9	-0.2
CC(C)(C)c1nc2ccccc2[nH]1	/	-0.3
CCOC(=O)Cn1c(=NC(=O)C2COc3ccccc3O2)sc2cc(NC(C)=O)ccc21 (stereo unspecified)	-23	/
COC(=O)c1cc(CSc2nnc(-c3ccccc3)c(-c3ccccc3)n2)oc1C	4	/
CC(C)Cn1c(O)c(N=NC(=S)NC(C)C)c2ccccc21	-12	/
CC(C)(C)c1csc(-c2ccc(-c3cccs3)s2)n1	/	-0.5
O=C(Nc1ccc(N2CCOCC2)cc1)c1cnc2ccccc2n1	/	1.0
Cc1ccc(S(=O)(=O)NC(=O)NC(C)(C)C)cc1	2	-2.3
Cc1ccc(NC(=O)Nc2cc3c(cc2N2CCCC2)n(C)c(=O)n3C)cc1C	8	/
O=C(NCc1ccc2c(c1)OCO2)c1cc2ccccc2s1	/	-0.5
Cc1ccc(NCc2nnc(SCc3nc4ccccc4c(=O)[nH]3)n2Cc2ccco2)c(C)c1	4	0.5
OC(CN1CCCCC1)CN1CCCCC1	6	-1.6
CCOC(=O)c1ccc(-n2c(CC)nc3c(C)csc3c2=O)cc1	/	-2.5
COc1ccc2ccccc2c1C(O)c1cccs1 (stereo unspecified)	0	-0.6
Cc1c(C(=O)O)nnn1-c1cc(C(F)(F)F)cc(C(F)(F)F)c1	/	0.1
CC(/C=N/OCc1c(F)cccc1Cl)=N\Nc1c(Cl)cc(Cl)cc1Cl	/	2.4
CC(=O)c1ccc(OCc2ccc(F)cc2)c([N+](=O)[O-])c1	/	-1.4
Cc1ccc(C(=O)CSc2ncn(-c3ccccc3)n2)cc1	4	0.2
Cc1ccc(NC(=O)c2cc(C)no2)cc1	9	/
CC(NCC1CCCO1)C(=O)N(C(C)C)C(C)C (stereo unspecified)	4	-4.2

Exported field by field: part of the list above
> Cc1ccc(NCc2nnc(SCc3nc4ccccc4c(=O)[nH]3)n2Cc2ccco2)c(C)c1
  Sa helicase inh: 4	MgrA-DNA mod: 0.5

> Cc1ccc(NC(=O)Nc2cc3c(cc2N2CCCC2)n(C)c(=O)n3C)cc1C
  Sa helicase inh: 8	MgrA-DNA mod: /

More compounds follow:
SMILES	Sa helicase inh	MgrA-DNA mod
Cc1ccc(NCC(O)Cn2c3ccccc3c3ccccc32)cc1 (stereo unspecified)	2	1.8
c1ccc2sc(SCc3cn4cccnc4n3)nc2c1	-1	2.4
Clc1ncnc2c1[nH]c1ccccc12	16	/
CC(c1ccccc1)C(CC(=O)Nc1nccs1)C(=O)Nc1nccs1 (stereo unspecified)	7	-0.8
CC(=O)Nc1cc(C(=O)O)ccc1Sc1ccccc1	8	/
O=C(C1CCCCC1)N1CCC(n2nnc3ccccc32)CC1	-6	18
CC(=O)Nc1ccc(NC(=O)CCC(=O)c2ccccc2)cc1	5	3.0
CCn1c(O)c(N=NC(C)=O)c2ccccc21	8	/
Cc1cc(-c2nnc(SCC(=O)c3ccccc3)n2C)no1	/	-1.9
CSc1ccc(Cn2cccc2C2=NC(C(C)C)CO2)cc1 (stereo unspecified)	17	4.8
COc1ccc(CCNC(=O)C2C3C=CC(C3)C2C(=O)O)cc1OC (stereo unspecified)	14	-1.6
O=C(/C=C/c1ccccc1)NCCN1CCOCC1	-4	3.6
CCC(=O)N1CCc2cc(S(=O)(=O)NC(C(=O)NCc3ccco3)C(C)C)ccc21 (stereo unspecified)	-32	/
CC(C)(C)NC(=O)Cn1c(SCC(=O)c2ccc3c(c2)OCCO3)nc2ccccc21	2	0.3
O=C(CSc1nccc(=O)[nH]1)C12CC3CC(CC(C3)C1)C2	5	/
C/C(=N\OC(=O)Nc1ccc(Cl)cc1)c1cc(-c2ccccc2)no1	14	/
Cc1onc(-c2ccccc2)c1C1=N/C(=C\c2cc(Br)cs2)C(=O)O1	/	-1.7
COc1cc(C)nc(N(C)S(=O)(=O)c2ccccc2)n1	2	-4.4
O=C(CCN1C(=O)c2ccccc2C1=O)N1CCC(c2ccccc2)C1 (stereo unspecified)	3	-0.4
Cc1ccccc1C(=O)NC(=S)N1CC(C)OC(C)C1 (stereo unspecified)	9	0.7
COc1ccccc1-c1nn(CN(c2ccccc2)c2ccccc2)c(=S)o1	-9	-1.3
c1ccc2cc3sccc3cc2c1	/	-0.8
O=C(NC(=O)N1CCCc2ccccc21)c1ccccc1	10	/
O=C1c2ccccc2C(=O)N1CCSc1n[nH]c(-c2ccccc2F)n1	10	/
O=C(CSc1ncccn1)N1CCCc2ccccc21	-5	-0.8
CC(C)(C)n1ncc2c(=O)n(CC(=O)N3CCCC3)cnc21	18	/
CC(C)c1nnc(SCC(=O)NC(C)(C)C)n1C	8	-0.4
O=[N+]([O-])c1ccc(Oc2ccc(Cl)cc2)cc1	/	3.6
Cc1cc([N+](=O)[O-])cc([N+](=O)[O-])c1Sc1ccc(Cl)cc1	/	-0.6
N#Cc1cc2c(nc1SC1CCc3ccccc3C1=O)CCCC2 (stereo unspecified)	2	3.9
CC1=NNC(=O)/C1=C/c1ccc(-c2ccc(Cl)cc2)o1	5	/
Clc1ccccc1OCCBr	-13	-1.4
O=C(NC1CCCC1)c1ccc(CSc2nc3ccncc3[nH]2)cc1	21	/
O=C(CSc1ccc2ccccc2n1)NCCCN1CCCC1=O	-24	/
O=C1c2ccccc2C(=O)N1CN1CCN(Cc2ccc3c(c2)OCO3)CC1	3	-0.8
CC(Sc1nnc(C2CCCCC2)n1-c1cccc(Cl)c1)C(=O)O (stereo unspecified)	1	-30
O=C(Cn1ncc(Cl)c(Cl)c1=O)N1CCOCC1	-8	/
CSc1cccc(-n2cc(-c3ccc4c(c3)OCO4)[nH]c2=O)c1	8	/
C=CCN1C(=O)CS/C1=C(\C#N)S(=O)(=O)c1ccc(C)cc1	25	3.6
NC(=O)COC(=O)c1sc2cc(F)ccc2c1Cl	8	/
COC(=O)CCC(=O)Nc1sc2c(c1C(=O)OC)CCCC2	11	/
CCNc1oc(COc2ccc(OC)cc2)nc1C#N	-15	0.9
O=C(NCc1ccccc1)C1CCC(C(=O)NCc2ccccc2)N1 (stereo unspecified)	-15	/
COC(=O)CC(c1ccc(C#N)cc1)n1c(C)ccc1C (stereo unspecified)	/	-1.2
CCc1ccc(Nc2nnc(SCC(=O)NC(=O)CN3CCCC3=O)s2)cc1	-1	/
CC(=O)Nc1cccc(O)c1	/	0.0
O=C(Nc1ccccc1C1CC1)c1cccs1	8	2.9
Cc1cc2c(cc1S(=O)(=O)CCC(=O)NCc1ccco1)OCC(=O)N2	-16	1.8
CNc1nc2c(c(=O)[nH]c(=O)n2C)n1Cc1cccc2ccccc12	6	0.4
Nc1nc(N2CCOCC2)ncc1S(=O)(=O)c1ccc(Cl)cc1	/	-1.8
CCOC(=O)COc1ccc2c(=O)c(-c3ccc4c(c3)OCCO4)c(C(F)(F)F)oc2c1	/	-0.7
CO/N=C(/C(=O)N[C@@H]1C(=O)N2C(C(=O)O)=C(COC(C)=O)CS[C@H]12)c1csc(N)n1	/	3.3
CN(C(=O)c1cc(=O)c2ccccc2o1)C1(c2ccccc2Cl)CCCCC1=O (stereo unspecified)	-22	1.3
CC(C)(CNCC(O)c1ccccc1)N1CCOCC1 (stereo unspecified)	12	/
O=C(Nc1ccc(-c2nc3ccccc3s2)cc1)Nc1cc(F)cc2c1OCOC2	/	-0.5
Cc1[nH]c2ccccc2c1C(=O)C(C)OC(=O)c1ccccc1-n1cnnn1 (stereo unspecified)	-4	/
COc1ccc(-c2noc(=O)n2CC(=O)Nc2ccccc2C)cc1	-6	/
COc1cccc(NC(=O)c2c(OC)cccc2OC)c1	5	1.6
CC1=Nc2cc(C(=O)NCc3ccco3)ccc2Sc2ccc(Cl)cc21	10	/
Cc1ccc(-c2ccc(OC(=O)c3ccccc3F)cc2)cc1	9	-0.2
Continuation.
SMILES	Sa helicase inh	MgrA-DNA mod
N#CCC(=O)Nc1ccc2c(c1)OCCO2	12	-1.3
Cc1cc(S(=O)(=O)N2CCCC2)ccc1-n1cnnn1	-2	2.0
CCOc1ccccc1CCC(=O)O	/	-4.2
O=C(CN1CCSC1=O)Nc1cccc(-c2nnc3n2CCCCC3)c1	-13	/
O=C(CSC1=NCCS1)NCc1ccc2c(c1)OCO2	-3	/
COc1ccc2ncc(C(=O)O)c(NCCO)c2c1	7	-1.9
O=C(c1ccccc1)C1CCNCC1	/	-2.0
Cc1nc(C(F)(F)F)nc(Sc2n[nH]c(-c3ccccc3)n2)c1C	/	-1.7
COc1ccc(S(=O)(=O)NC2CCCCC2)cc1	-13	1.1
S=C(NNc1ccccc1)c1ccccc1	11	/
CCOC(=O)NNc1nc2ccccc2o1	12	-2.8
NS(=O)(=O)c1ccc(-c2ccc(/C=N/NC(=O)CSc3ccccc3F)o2)cc1	15	/
COc1cccc(CNC(=O)c2cc3c(=O)[nH]c4ccccc4c3s2)c1	13	/
Cc1onc(-c2c(Cl)cccc2Cl)c1NC(=O)NCC(c1ccc[nH]1)C(F)(F)F (stereo unspecified)	-11	/
COc1ccc(N2C(=O)/C(=C\c3ccc(C(C)C)cc3)C(=O)NC2=S)cc1	18	-0.2

Pulled by compound from the entries so far:
SMILES	Sa helicase inh	MgrA-DNA mod
COc1ccc(S(=O)(=O)NC2CCCCC2)cc1	-13	1.1
N#CCC(=O)Nc1ccc2c(c1)OCCO2	12	-1.3
CCOc1ccccc1CCC(=O)O	/	-4.2
CCOC(=O)NNc1nc2ccccc2o1	12	-2.8
O=C(c1ccccc1)C1CCNCC1	/	-2.0

Only part of the results is shown; rates above refer to the full screens.
